D2 PAM = positive allosteric modulators of human D2 dopamine receptor. potentiation, % (concentration not given with the values). P14416. AID 624464. DiscoveRx D2 beta-arrestin cells, luminescence, 90 min; 100% = 57 uM dopamine signal. actives 0.23% (n = 360,000); active = potentiation of 50% or more; inconclusive = 30% to 50%; inactive = 30% or less;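 note: compound concentration not given in the record; tested on top of an EC20 dose of dopamine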
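PathHunter D2 cells, attached overnight at 37 deg C, received compound in DMSO plus dopamine at EC20 (50 nM final) for 90 min at 37 deg C. Beta-arrestin recruitment was read as luminescence after 1 h with detection reagent at ambient temperature.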
TRPML1 ag = agonists of human TRPML1 channel | actives 0.12% (n = 410,000) | TRPML1-expressing cells, Ca2+ dye fluorescence, FDSS; host cell line not named in the record; reference of the full effect not given here | activation, % (no concentration beside the values) | AID 624414; in the data active = activation above about 50%; inconclusive = about 30% to 50%; inactive = below about 30%; note: 0% is about no effect; the text of the record puts the active cut at 80%
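Kinetic FDSS Ca2+ read in Tet-induced TRPML1-DL cells (ABD Ca8 dye plus quencher, 45-90 min RT loading): baseline, then compound, then 110 s agonist window; EC80 agonist 54-4 at 4uM final added afterwards for a 110 s antagonist window.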
CtBP-E1A inh = CtBP/E1A binding inhibition | AlphaScreen GST-E1A/His-CtBP binding, 1536-well; stronger effect = lower value; control for the full effect not named in the record | activity change, % (no concentration beside the values) | actives 0.49% (n = 340,000) | AID 651724; in the data active means activity change below about -65%; inconclusive means about -30% to -65%; inactive means above about -30%; note: % is set by controls: 0 for no effect and ±100 for the full control effect; compound concentration not given in the record
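Protein mix (5X: 125 nM each GST-E1A, His-CtBP) was incubated with pinned compound 2 h at 37 deg C in dark, in 50 mM Tris pH 8.0 buffer with 300 mM NaCl. Glutathione donor and nickel acceptor beads followed; AlphaScreen signal read after 1 h.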
D2 ag = human D2 receptor agonism in beta-arrestin assay | activation, % (no concentration beside the values) | actives 0.084% (n = 360,000) | DiscoveRx PathHunter D2 beta-arrestin, luminescence, 90 min; 100% = 57 uM dopamine signal; in the data active = activation above about 40%; inconclusive = about 15% to 40%; inactive = below about 15%; note: compound concentration not given in the record; the text of the record calls up to 30% inactive
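DiscoveRx PathHunter D2 beta-arrestin cells (2,100/well) attached overnight, then compound-stimulated 90 min at 37 C in HBSS/10 mM HEPES/0.1% Tween-20 buffer; beta-galactosidase complementation read by luminescence after 1 h at ambient temperature. Dopamine 57 uM final (EC100) as control.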
PINK1 expr mod = PINK1 expression modulation | PINK1 immunofluorescence, high-content cytometry, 24 h | Potency, µM (highest dose often 76.6 µM), for inactives: at the top dose activation (PINK1 increase), most hits filed as activators | actives 0.2% (n = 410,000); active = well fitted activation curve with a large enough effect; inconclusive = small, poorly fitted or top-dose-only effect; inactive = flat fitted curve, though single readings scatter; cell line not stated here;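 note: potency is the fitted concentration of half-maximal effect; % of control where 0% means no effect; nearly all actives have a fitted effect of over 65% in size; a mitochondrial uncoupler was the plate control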
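Stable cell line, 250 cells/well, 12 h attachment; compounds pinned at 5 concentrations, 24 h; CCCP control. Fixed with nuclear dye, primary antibodies 12 h at 10 degrees C, secondary plus cell stain; laser-scanning cytometer read.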
Six1-Eya2 blk = blocks human Six1 binding to Eya2; activity change, % (no concentration beside the values); actives 0.56% (n = 360,000); AlphaScreen GST-Six1/His-Eya2 binding, biochemical; stronger effect = lower value; control for the full effect not named in the record; Q15475+O00167; in the data active = activity change below about -65%; inconclusive = about -30% to -65%; inactive = above about -30%; note: % is set by controls: 0 for no effect and ±100 for the full control effect; compound concentration not given in the record
Target sequence (O00167 whole entry, looked up): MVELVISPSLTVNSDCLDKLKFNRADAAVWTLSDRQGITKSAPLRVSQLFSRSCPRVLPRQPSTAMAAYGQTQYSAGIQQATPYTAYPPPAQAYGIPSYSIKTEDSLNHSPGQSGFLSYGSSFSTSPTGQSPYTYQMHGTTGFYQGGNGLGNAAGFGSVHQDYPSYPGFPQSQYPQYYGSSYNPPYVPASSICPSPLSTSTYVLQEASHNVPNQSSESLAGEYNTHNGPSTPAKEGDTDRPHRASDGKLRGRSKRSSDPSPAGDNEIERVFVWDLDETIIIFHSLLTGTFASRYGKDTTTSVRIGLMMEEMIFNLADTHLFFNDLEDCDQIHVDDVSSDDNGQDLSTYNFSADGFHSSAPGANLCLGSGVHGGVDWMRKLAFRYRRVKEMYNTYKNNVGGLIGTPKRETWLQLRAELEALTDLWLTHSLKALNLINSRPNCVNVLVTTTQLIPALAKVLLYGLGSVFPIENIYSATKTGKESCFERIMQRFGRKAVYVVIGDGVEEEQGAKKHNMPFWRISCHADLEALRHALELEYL
Target sequence (Q15475 whole entry, looked up): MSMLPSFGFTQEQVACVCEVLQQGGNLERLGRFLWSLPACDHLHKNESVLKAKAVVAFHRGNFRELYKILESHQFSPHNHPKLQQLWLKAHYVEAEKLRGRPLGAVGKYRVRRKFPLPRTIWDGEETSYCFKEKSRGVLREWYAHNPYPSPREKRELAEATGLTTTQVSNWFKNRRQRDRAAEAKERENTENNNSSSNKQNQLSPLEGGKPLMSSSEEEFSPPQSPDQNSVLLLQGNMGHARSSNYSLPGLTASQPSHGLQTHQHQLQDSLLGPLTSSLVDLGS
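Compounds are tested against tagged Six1 and Eya2 proteins bridged by glutathione donor and nickel acceptor beads; after a one-hour incubation at 37 °C without light, AlphaScreen emission is recorded.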
* marks the source's active call; other numbers are inactive results; ? = inconclusive; . = not tested or not shown; [ ] = dose if it differs, or a comment.

SMILES | D2 PAM | TRPML1 ag | CtBP-E1A inh | D2 ag | PINK1 expr mod | Six1-Eya2 blk
CCCc1cc(C(=O)N2CCCC(N3CCN(c4ccc(F)cc4)CC3)C2)no1 (configuration not stated) | -8 | -1.1 | -3 | -1.8 | -0.5% | -5
Cc1ccccc1OC(=O)n1c(=S)oc2cc(Cl)ccc21 | -7 | 0.0 | 7 | -0.2 | -0.2% | 3
CCOC(=O)C1CCN(C(=O)Cc2ccc(-c3ccccc3)cc2)CC1 | -1 | 1.3 | 6 | -1.4 | 0.7% | 3
CCn1c(N2CCN(CC(=O)Nc3cccc(C)c3C)CC2)nc2ccccc21 | -11 | -0.1 | 2 | -0.5 | -1.8% | 1
CCc1nc2oc3ccccc3c(=O)c2c(=O)n1-c1ccc(C)cc1 | 0 | 9.4 | -2 | 3.4 | 2.4% | -21
O=C1NC(=O)/C(=C\c2ccccc2Oc2ccc(F)c(F)c2)S1 | -26 | -0.8 | -13 | -3.1 | ? | -18
CN1CCN(CCC(=O)N/N=C/c2ccccc2F)CC1 | 0 | -0.3 | -2 | -1.5 | 0.2% | 12
Cc1ccccc1C(=O)NNC(=O)CSc1nnc(-c2ccncc2)n1-c1ccccc1 | -8 | 1.0 | 7 | -1.8 | -3.1% | 1
O=c1[nH]ncc(N2CCCCCC2)c1Cl | 1 | -0.4 | 3 | 0.3 | -1.1% | -14
COc1ccc(C(=O)NC(=S)Nc2nc(C)cc(C)n2)cc1Br | -1 | 0.4 | -2 | -3.2 | -1.5% | 8
COCCNCC1C(Oc2ccc(Cl)cc2)C(=O)N1c1ccccc1C (configuration not stated) | -23 | 2.5 | -9 | 1.3 | -2.0% | -2
COc1ccc(NC(=S)Nc2ccccc2F)c(OC)c1 | -9 | -0.5 | 2 | -5.1 | -1.4% | -8
Cc1ccc(SCCC(=O)NCCSCc2ccccc2C)cc1 | -37 | 1.6 | 10 | -2.7 | 2.3% | 1
OC(COCc1ccccc1)CN1CCN(c2ccccc2)CC1 (configuration not stated) | -4 | 2.7 | -2 | 14 | -2.2% | -3
CC(=O)c1c(N2CCN(c3ccccn3)CC2)nc(=S)n(-c2ccccc2)c1C | -3 | 0.0 | -5 | -0.1 | 3.0% | 4
Cc1cccc(N(CC(=O)NC2CCCC2)C(=O)c2csnn2)c1C | -5 | -0.2 | 6 | -3.7 | 0.6% | 4
O=C(CC12CC3CC(CC(C3)C1)C2)NC1CC1 | -6 | -0.4 | 2 | -3.1 | 1.3% | 4
Cc1ccc(-c2csc3nnc(SCC(=O)NCc4ccco4)n23)cc1 | -3 | 1.4 | -7 | 1.7 | -2.6%[38.3 µM] | 0
CCN(CC)CCC(=O)NN | -2 | 0.5 | 1 | 0.9 | 0.9% | 1
CC1(C)Cc2cccc(OCC(=O)NCc3cccs3)c2O1 | -18 | 2.4 | -1 | -5.5 | 0.7% | 11
O=C(NC(=O)c1ccccc1O)c1ccc(C(F)(F)F)cc1 | -3 | 1.0 | -1 | -12 | 32µM* | 8
COc1cccc(NC(=O)c2ccc(OC(F)(F)F)cc2)c1 | -13 | 1.3 | 12 | -0.2 | 9.0% | 6
CCOC(=O)Cn1nnnc1C(C(C)C)N(Cc1cc2c(C)cc(C)cc2[nH]c1=O)C1CCCC1 (configuration not stated) | -10 | 0.0 | -3 | -3.1 | 8.8% | -14
CCOc1ccc(C(=O)NC(C(=O)NCc2cccnc2)C(C)C)cc1 (configuration not stated) | -7 | -0.1 | 6 | -0.8 | 3.1% | 1
CC(O)c1ccc(-n2cnnn2)cc1 (configuration not stated) | 12 | 0.0 | 4 | 0.6 | -0.2% | -4
Cc1cc(=O)oc2c(C)c(OCC(=O)NCCN3CCOCC3)ccc12 | -13 | 0.3 | 0 | -6.5 | -0.4% | 2
CN(C)CCCOC(=O)c1ccc(Br)cc1 | -16 | 0.0 | 4 | -1.7 | -1.8% | -2
Cc1cccc(-n2c(CNC(=O)c3ccccc3)nnc2SCC(=O)Nc2nccs2)c1 | -6 | 0.1 | 0 | -2.7 | 0.6% | 3
CCOC(=O)c1c(CN2CCOCC2)n(-c2ccccc2)c2cc(Br)c(OC)cc12 | -5 | 0.9 | -15 | -2.9 | 5.5% | -10
CC(C)(CNC(=O)CNC(=O)c1ccccc1F)N1CCOCC1 | 4 | -1.0 | . | -3.5 | 1.7% | 2
CC(C)CC(NC(=O)OCc1ccccc1)C(=O)NC(Cc1ccccc1)C(=O)CCl (configuration not stated) | -16 | 0.4 | -1 | -3.0 | -7.0% | -8
NCCCC[C@H](N)c1nnc([C@H](CCC(=O)O)NC(=O)C2CCNCC2)o1 | -6 | -0.5 | -7 | -1.1 | 0.4% | -7
Cc1cc(N/N=C/c2ccc(O)c(C)c2O)nc(-c2ccccc2O)n1 | 17 | 7.2 | -4 | ? | -5.1% | -19
CC1CCCN(CCCNC(=O)CCn2nc(-c3ccccc3)ccc2=O)C1 (configuration not stated) | -14 | -0.2 | 4 | 0.4 | 3.9% | 3
CCOc1cccc(/C=N/N2C(C)CCCC2C)c1O (configuration not stated) | -3 | 2.4 | 2 | 4.1 | -0.5% | -6
O=C(Cn1[nH]c(=O)c2ccccc2c1=O)NNC(=O)c1ccccc1 | 3 | 3.2 | . | -0.5 | 0.3% | 3

Compound profiles, from the list above. Values in the order: D2 PAM, TRPML1 ag, CtBP-E1A inh, D2 ag, PINK1 expr mod, Six1-Eya2 blk
Cc1cccc(-n2c(CNC(=O)c3ccccc3)nnc2SCC(=O)Nc2nccs2)c1 reads -6, 0.1, 0, -2.7, 0.6%, 3
CCOC(=O)c1c(CN2CCOCC2)n(-c2ccccc2)c2cc(Br)c(OC)cc12 reads -5, 0.9, -15, -2.9, 5.5%, -10
CC1CCCN(CCCNC(=O)CCn2nc(-c3ccccc3)ccc2=O)C1 (configuration not stated) reads -14, -0.2, 4, 0.4, 3.9%, 3
NCCCC[C@H](N)c1nnc([C@H](CCC(=O)O)NC(=O)C2CCNCC2)o1 reads -6, -0.5, -7, -1.1, 0.4%, -7

Records listed above that bear a hit mark in PINK1 expr mod.
molecule	D2 PAM	CtBP-E1A inh	D2 ag	PINK1 expr mod	Six1-Eya2 blk
O=C(NC(=O)c1ccccc1O)c1ccc(C(F)(F)F)cc1	-3	-1	-12	32µM*	8

The results go on.
SMILES | D2 PAM | TRPML1 ag | CtBP-E1A inh | D2 ag | PINK1 expr mod | Six1-Eya2 blk
CCn1c(N)c(C(=O)NCc2ccco2)sc1=S | -7 | -1.5 | -8 | -1.3 | -0.2% | -6
Cc1ccc(OCCNC(=O)c2ccccc2N)cc1 | -3 | 1.2 | 4 | 2.6 | 1.7% | 0
CC(=O)Nc1sc(/C(C#N)=C/c2ccc(Cl)c(Cl)c2)nc1-c1ccc(C)cc1 | -5 | 75* | 5 | -2.8 | 3.1% | 31
OCCNC(=S)Nc1cccc(Cl)c1Cl | -2 | -0.2 | 4 | -2.6 | 0.9% | 12
Cc1ccc(N(C(=O)Cc2cccs2)C(C(=O)NC2CCCCC2)c2ccccn2)cc1C (configuration not stated) | -18 | 2.9 | 4 | -1.2 | 17% | 1
O=C(O)CSc1nnc(-c2cccs2)n1-c1ccc(Cl)cc1 | -14 | 1.6 | 2 | -4.1 | -0.9% | -2
COc1ccccc1C(=O)N(Cc1sccc1C)C1CCS(=O)(=O)C1 (configuration not stated) | -2 | -0.3 | 6 | 2.7 | -1.1% | 6
C=CC(n1cncn1)C(O)(c1ccccc1)c1ccccc1 (configuration not stated) | -9 | 0.1 | 1 | -7.1 | 1.2% | 1
C/C(=C\C(=O)c1ccccc1)Nc1ccc(O)cc1 | 56* | -0.4 | 1 | ? | 0.7% | ?
c1ccc(CCCCNCC2COc3ccccc3O2)cc1 (configuration not stated) | -5 | 1.5 | 10 | -1.8 | 20% | 11
COc1cc(NC(=O)C2CCCCN2)ccc1OCC(C)C (configuration not stated) | -15 | -1.0 | 0 | -3.4 | 0.6% | -3
CC(C)[C@H](NC(=O)c1cc2cc(Cl)ccc2n1C)C(=O)N1CCC(C(=O)O)CC1 | -4 | 0.2 | 5 | -4.1 | 4.5% | 2
COc1ccc(CCNC(=O)c2cc(C(C)C)on2)cc1OC | -5 | 0.6 | 2 | 1.1 | -1.1% | 8
COc1cccc(C(=O)c2c(-c3ccccc3)ncc3cc(OC)c(OC)cc23)c1 | 7 | 2.1 | -6 | 0.4 | 0.5% | -6
CC(C)(C)C1CCc2c(sc3c2C(=O)NC(c2ccco2)N3)C1 (configuration not stated) | 8 | 0.2 | -17 | 3.1 | -2.6%[38.3 µM] | -11
CN(C1CCCCC1)S(=O)(=O)c1ccc2[nH]c(=O)oc2c1 | 8 | -0.6 | -2 | 0.8 | -2.3% | 44
Cc1ccc(Cn2ncc3c(N4CCN(C)CC4)ncnc32)cc1 | -11 | 0.0 | 10 | 5.4 | 1.5% | -14
COc1ccccc1/C=C1/SC(=S)N(C(C)C(=O)NC2C=CS(=O)(=O)C2)C1=O (configuration not stated) | -9 | -0.5 | . | -7.1 | -0.7% | -13
COc1ccc(Nc2nc(C)nc3c2oc2ccccc23)cc1 | -2 | 1.7 | -7 | -0.5 | -0.9% | 11
CCCCCCCCOC(=O)CCc1c(C)[nH]c(=S)[nH]c1=O | -13 | 1.9 | 1 | -1.7 | ? | -5
CC1(C)Cc2c(sc3c2c2ncnn2c2nnc(SCC(=O)NCc4ccco4)n32)CO1 | -2 | -0.1 | -27 | -0.5 | 14% | -26
CCOc1ccc2nc(SCC(=O)NCc3ccc4c(c3)OCO4)[nH]c2c1 | 0 | 2.3 | -8 | -3.2 | 4.5%[38.3 µM] | -3
CCOC(=O)C1(C)CCCCN1C(=O)c1ccnc(Cl)c1 (configuration not stated) | -7 | -0.9 | 1 | -5.8 | 2.3% | -2
COc1ccc2[nH]c(=O)c(CN(CCO)S(=O)(=O)c3ccc(C)cc3)cc2c1 | -3 | 1.8 | . | -5.4 | 0.7% | 0
O=C(CN1CCCCC1)Nc1ccc(NC(=O)c2ccc(Cl)cc2)cc1Cl | -7 | 6.3 | -4 | -1.4 | 9.9% | 1
O=C1CCc2cc(NS(=O)(=O)c3ccc([N+](=O)[O-])cc3)cc3c2N1CCC3 | 10 | -0.4 | 1 | 5.2 | 1.0% | -6
CC(C)CNC(=O)NC(=O)COC(=O)C1CSC2(c3ccc(F)cc3)CCC(=O)N12 (configuration not stated) | -4 | 0.2 | -5 | 6.2 | 1.6% | 1
COc1ccc(-c2[nH]ncc2[C@@H]2C[C@H]3CN(Cc4ccccc4C)C(=O)[C@]34CCCN24)cc1 | -10 | 1.0 | . | -0.7 | 0.5% | -14
c1coc(C2OCC3(CO2)COC(c2ccco2)OC3)c1 (configuration not stated) | -6 | -0.2 | 8 | -2.6 | 0.3% | 10

A few values from the entries so far.
In Six1-Eya2 blk, O=C(CC12CC3CC(CC(C3)C1)C2)NC1CC1 has the entry 4
In TRPML1 ag, Cc1ccc(SCCC(=O)NCCSCc2ccccc2C)cc1 has the entry 1.6

Compound activity: PubChem BioAssay, National Center for Advancing Translational Sciences (NCATS)
